HTT promoter inh = HTT promoter inhibition | HEK293 HTT promoter firefly luciferase reporter (activity 0% = vehicle and -100% = no light), 24 h | Potency, µM (highest dose often 57.5 µM), for the others: at the highest dose activity change, negative = inhibition, actives largely listed as inhibitors | 48,000 tested, 0.93% active; active means well fitted inhibition curve with a large enough effect; inconclusive means small, poorly fitted or top-dose-only effect; inactive means no such curve, though single readings can be large or run the other way; further: nearly all actives have a fitted effect of over 50% in size
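Luminescence was read after Dual-Glo reagent and a 10 min room-temperature incubation. Values were normalized to vehicle (0% activity) and zero RLU (-100% activity). Reporter HEK293 cells had been exposed to compounds (up to 57.5 uM final) for 24 h.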
PMP22 txn prim = PMP22 gene transcription modulation; S16 Pmp22-F2sN Schwann cells (luciferase reporters placed in the Pmp22 gene), FLuc/NLuc coincidence luminescence, 24 h; Potency, µM (titrated, usually from 57.5 µM), for inactives: top-dose activity change, negative = inhibition, most hits filed as inhibitors; 43,000 tested, 2% active; AID 1508649; active = clear falling dose curves in both reporters; inconclusive = both reporters move, but less clearly or upward; inactive = either reporter flat; the % is the NLuc reporter signal; further: on the % scale 0 is the no-effect control and ±100 the full control effect; some results filed as inactive show a strong effect at the top dose
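Rat S16 Pmp22-F2sN cells, 500-1,000/well in phenol red-free DMEM + 10% FBS, compound-treated 24 h (37C, 5% CO2). Luminescence: FLuc read, Stop&Glo added, NLuc read.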
Numbers without * were called inactive; ? = inconclusive; . = no result given; & = joins results of further samples; [ ] = remark or other dose. Potency means the concentration at half of the fitted maximal effect.

Molecule | PMP22 txn prim | HTT promoter inh
CNC(=O)Cn1cc(S(=O)(=O)Cc2ccccc2F)c2ccccc21 | 7% | -1%
Cc1ccc(-c2nc3scc(CCNS(=O)(=O)c4c(C)noc4C)n3n2)cc1 | -18% | -28%
CCOC(=O)C1CCCN(C(=O)Cn2ncc3c(C)n(Cc4ccccc4F)c(C)c3c2=O)C1 (stereo not drawn) | -51% | ?
CCCOc1ccccc1Cn1c(=O)sc2ccccc21 | -2% | -17%
O=C(OCC1CCCO1)c1ccc2c(c1)N(Cc1cccc(Cl)c1)C(=O)c1ccccc1S2(=O)=O (stereo not drawn) | -1% | -1%
COCCNC(=O)c1ccc2nc(Cc3ccccc3)oc2c1 | 3% | 9%
Cc1cc(C)c(NC(=O)C(C)n2nc(C)c3sc4ccccc4c3c2=O)c(C)c1 (stereo not drawn) | -5% | -15%
Cc1ccc(-n2c3c(c(=O)[nH]c2=O)C(NS(=O)(=O)c2ccc(C)cc2)(C(F)(F)F)C(=O)N3)cc1 (stereo not drawn) | -6% | -12%
NS(=O)(=O)c1ccc(NC(=O)CCn2c(=O)oc3ccccc32)cc1 | -9% | -10%
O=C(O)[C@@H](c1ccc(OCc2ccc3ccccc3n2)cc1)C1CCCC1 | . | 6%
O=C(Cn1ncn2c(cc3ccccc32)c1=O)NCc1ccc(F)cc1 | -23% | -6%
O=C(Oc1ccc(Cl)cc1)c1cc(-c2ccc3c(c2)OCCO3)on1 | -1% | 2%
Nc1ccc(O)cc1 | . | 12%
CCc1ccc(NC(=O)N(Cc2cn(CC)c3ccccc23)C2CCCCC2)cc1 | ? | -11%
COc1ccc(CNC(=O)c2ccc(NC(=O)N3CC4CCCN4c4ccccc43)cc2)cc1 (stereo not drawn) | ? | ?
NS(=O)(=O)c1cc2c(cc1Cl)NC=NS2(=O)=O | . | -7%&3%
COc1ccc(-c2c3c(nc4sc(C(=O)Nc5ccc(F)cc5)c(N)c24)CC(C)(C)CC3=O)cc1 | ? | -3%
O=C(Nc1cc(Cl)cc(Cl)c1)c1ccc(F)c(S(=O)(=O)N2CCN(c3ccccc3F)CC2)c1 | ? | -15%
CCC(=O)N1CCc2cc(Br)cc(S(=O)(=O)N3CCCC(C(=O)Nc4cc(C)ccc4OC)C3)c21 (stereo not drawn) | ? | -4%
CCC1CCCCN1C(=O)Cn1c(=O)n(CCCCCC(=O)NCc2ccccc2)c(=O)c2sccc21 (stereo not drawn) | 4% | -14%
CC(Nc1ccc(-c2nc(-c3ccccn3)no2)cc1[N+](=O)[O-])c1ccccc1 (stereo not drawn) | -19% | 20%
O=C(NCc1ccccc1Cl)c1ccc(NC(=O)c2nsc3ccccc23)cc1 | -7% | ?
COc1ccc(NS(=O)(=O)c2nnc(NC(=O)c3ccccc3F)s2)cc1 | -25% | 14%
Cc1ccc2occ(CC(=O)Nc3ccc(S(N)(=O)=O)cc3)c2c1 | 5% | -16%
Cc1ccc2c(c1)-c1onc(C(=O)N(C)c3cccc(C(F)(F)F)c3)c1CO2 | ? | -18%
Cc1ccc(-c2nc(C(=O)NCc3ccccc3Cl)c3n2CCCCC3)cc1 | ? | -23%
CCN1C(=O)c2ccccc2S(=O)c2ccc(C(=O)NCc3ccc(Cl)cc3)cc21 (stereo not drawn) | -20% | -41%
O=c1c(-c2ccc(O)cc2)coc2cc(OC3O[C@H](CO)[C@H](O)[C@H](O)[C@H]3O)cc(O)c12 (stereo partly drawn) | . | 11%
O=C(NCCCc1ccccc1)c1ccc2c(c1)sc1nc(-c3ccc(F)cc3)cn12 | -12% | ?
Fc1ccc(-c2noc3ncnc(NCCc4ccc(Cl)cc4)c23)cc1 | ? | ?
CCOc1ccc(NC(=O)c2ccc3c(c2)CCN3S(=O)(=O)CC)cc1 | -24% | ?
COc1ccccc1CNc1ncnc2c1nnn2C | 13% | -13%
Cc1noc(Cn2c(=O)c3ccccc3n(CC(=O)Nc3cccc(Cl)c3C)c2=O)n1 | ? | 2%
Cc1ccc(-n2c(COCC(=O)O)nc3cccnc32)cc1 | ? | -22%
Fc1ccc(Nc2c(-c3ccco3)nc3ccccn23)cc1 | -52% | -37%
COC(=O)c1ccc(NC(=O)C(=O)NCCc2csc3nc(-c4ccccc4F)nn23)cc1 | ? | 18%
Cc1ccc2oc(-c3cc(NC(=O)c4cccs4)cc(C)c3O)nc2c1 | -31% | -7%
O=C(CSc1nc2c(c(=O)[nH]1)CN(Cc1ccc3c(c1)OCO3)CC2)Nc1cc(F)ccc1F | 0% | -33%
Cc1cccc(NC(=O)CSc2nncn2C)c1 | 2% | 0%
CCOC(=O)c1c(N)sc2c1CCN(Cc1ccccc1)C2 | . | -5%
CCC(=O)N1CCc2cc(Br)cc(S(=O)(=O)N3CCC(C(=O)NC(C)(C)C)CC3)c21 | -34% | 17%
Cc1cccc(N2CCN(C(=O)C3CCN(S(=O)(=O)c4cn(C)cn4)CC3)CC2)c1C | -9% | -21%
CCOc1ccc(C(=O)Nc2ccc(C(=O)OCc3cc(=O)n4ccsc4n3)cc2)cc1 | 8% | 5%
COc1ccc(-c2ccc(=O)n(CC(=O)Nc3ccc(Br)cc3F)n2)cc1 | 12% | 7%
Cc1ccccc1Cn1c(SCc2ccc(C(=O)NC3CCCCC3)cc2)nc2ccncc21 | -14% | -8%
CCc1ccccc1NC(=O)C1CCN(S(=O)(=O)c2ccc3[nH]c(=O)ccc3c2)CC1 | -10% | -4%
O=c1c2oc3ccccc3c2n(Cc2ccc(Cl)cc2)c(=O)n1Cc1ccc2c(c1)OCO2 | 0% | -29%
Cc1ccc(Cl)cc1N1CCN(C(=O)c2cnn(C(C)(C)C)c2C2CCN(C(=O)OC(C)(C)C)CC2)CC1 | ? | -15%
O=C(CSc1nccn1Cc1ccc(F)cc1)Nc1ccc2c(c1)OCCO2 | 4% | 15%
CCOC(=O)CSc1nc2sc3c(c2c(=O)n1Cc1ccccc1)CCC(C(C)(C)C)C3 (stereo not drawn) | -1% | -12%
O=C(NC1CC(=O)N(c2ccc(F)cc2)C1)c1ccco1 (stereo not drawn) | 14% | 20%
CCOC(=O)c1noc2ncnc(NCc3ccccc3OC)c12 | -18% | -13%
O=C(NCCCN1CCCCC1)c1cc(Sc2ccc(Cl)cc2)nc2ccccc12 | ? | -25%
Cc1ccccc1Nc1cc(C(=O)NC2CCC(C)CC2)c2ccccc2n1 (stereo not drawn) | -93% | 58%[activator]
Cc1ccc(S(=O)(=O)c2nnn3c2nc(N2CCCC2)c2sccc23)cc1C | -21% | -11%
COc1cccc(CNC(=O)CCn2cccn2)c1 | 0% | 2%
Cc1nc2nc(SCC(=O)NC3CCC(C)CC3)nn2c(C)c1Cc1ccccc1Cl (stereo not drawn) | -23% | 3%
O=C(CC1N=C2c3ccccc3N=C(SCc3cccc(Cl)c3)N2C1=O)NC1CCCCC1 (stereo not drawn) | ? | -11%
O=C(CSc1nc2c([nH]c3ccccc32)c(=O)n1-c1ccc(F)cc1)Nc1ccc2c(c1)OCO2 | ? | -27%
Cc1ccc2nc(-c3cccs3)c(Nc3ccc4c(c3)OCCO4)n2c1 | -3% | 27%

Quoted at random: five entries already listed.
Molecule | PMP22 txn prim | HTT promoter inh
CCOC(=O)CSc1nc2sc3c(c2c(=O)n1Cc1ccccc1)CCC(C(C)(C)C)C3 (stereo not drawn) | -1% | -12%
CCOC(=O)c1noc2ncnc(NCc3ccccc3OC)c12 | -18% | -13%
O=C(NCCCN1CCCCC1)c1cc(Sc2ccc(Cl)cc2)nc2ccccc12 | ? | -25%
O=C(CSc1nc2c(c(=O)[nH]1)CN(Cc1ccc3c(c1)OCO3)CC2)Nc1cc(F)ccc1F | 0% | -33%
Cc1nc2nc(SCC(=O)NC3CCC(C)CC3)nn2c(C)c1Cc1ccccc1Cl (stereo not drawn) | -23% | 3%

Complete entries, looked up by structure. Screens in order: PMP22 txn prim, HTT promoter inh
Entry for Cc1cccc(NC(=O)CSc2nncn2C)c1 : 2%, 0%
Entry for Cc1ccc2occ(CC(=O)Nc3ccc(S(N)(=O)=O)cc3)c2c1 : 5%, -16%

Carrying on:
Molecule | PMP22 txn prim | HTT promoter inh
CCc1ccc(NC(=O)CCn2nc(-c3ccccc3OC)c3c(C)cc(C)nc32)cc1 | ? | -17%
CC(C)Oc1ccc(CNC(=O)C2CCCN(S(=O)(=O)c3ccc4c(ccn4C)c3)C2)cc1 (stereo not drawn) | ? | ?
C=Cc1ccc(COc2ccc3oc(-c4ccccc4)c(C(=O)OCC)c3c2)cc1 | -21% | -3%
COC(=O)c1cc2sc(Cl)cc2n1Cc1c(C)cc(C)cc1C | ? | -7%
CCSc1ccccc1C(=O)N1CCN(c2nc3ccccc3s2)CC1 | ? | ?
Cc1ccccc1OCC(=O)OCc1cc(=O)n2nc(C3CCCCC3)sc2n1 | -73% | -2%
CCOC(=O)c1ccc(OC(=O)CCCCCN=C(N)N)cc1 | . | 28%&11%
CCOC(=O)c1ccc(NS(=O)(=O)c2ccc(Br)s2)cc1 | 2% | -15%
Cc1ccc2cccc(NC(=O)c3ccc(C#N)cc3F)c2n1 | -8% | -7%
Cc1cccc(OC(=O)CSc2nnc(CNC(=O)c3ccccc3)o2)c1C | -8% | -11%
COc1ccc(OC)c(-c2noc(CSc3nnc(Cc4ccccc4)n3-c3cccc(C)c3)n2)c1 | -25% | ?
CCCCC/C(C=O)=C\c1ccccc1 | . | 3%
COc1ccc2c(c1)c(=O)c(C(=O)c1ccc(Cl)cc1)cn2CC(=O)Nc1ccc2c(c1)OCCO2 | ? | -6%
CCC(C(=O)Nc1ccc(F)cc1F)n1nc(-c2ccccc2)c2c(c1=O)CCCC2 (stereo not drawn) | -1% | -23%
O=C(Nc1ccc(-c2cc(C(F)(F)F)nn2-c2ccccc2)cc1)c1cccc(F)c1 | ? | ?
O=C(COc1ccc(Cl)cc1)Nc1ccc2nc(SCC(=O)N3CCCC3)sc2c1 | -39% | -26%
COc1cc(C2Nc3ccccc3-c3nnc(SCc4ccc(C)cc4)nc3O2)cc(OC)c1O (stereo not drawn) | 11% | ?
COc1ccccc1NC(=O)CSC1=Nc2ccccc2C2=NC(CCC(=O)NCc3cccs3)C(=O)N12 (stereo not drawn) | ? | ?
Cc1ccc(C)c(NC(=O)/C(C#N)=C/c2ccc(C(C)C)cc2)c1 | 8% | -19%
CCCCCCCCCCCCCCCC(=O)OC(C)C | . | 13%
C[C@H](NC(=O)Cc1cc(F)cc(F)c1)C(=O)N[C@@H]1C(=O)N(C)c2ccccc2-c2ccccc21 | . | -1%
COCCOC(=O)C1=C(C)NC2=C(C(=O)CC(c3ccccc3OC)C2)C1c1cccc(O)c1 (stereo not drawn) | . | 11%
CC(NC(=O)Cc1ccc(NC(=O)N2CCCCc3ccccc32)cc1)c1ccccc1 (stereo not drawn) | ? | -26%
COc1ccccc1NC(=O)c1c(NC(=O)Cc2ccccc2)sc2c1CCC(C(C)(C)C)C2 (stereo not drawn) | -2% | -3%[11.5 µM]
COc1cc(C(=O)OCc2cc(=O)n3nc(C4CCCCC4)sc3n2)cc(OC)c1OC | -56% | -19%
CCc1cccc(NS(=O)(=O)c2c(C)nc3sc(CC)nn3c2=O)c1 | ? | ?
CCOc1ccc(-n2c(SCC(=O)N3CCCC3)nc3c([nH]c4ccccc43)c2=O)cc1 | 7% | -3%
CCOc1ccc(CC(=O)Nc2ccc3c(c2)N(C)C(=O)c2ccccc2S3)cc1OCC | -12% | -18%
COc1cccc2c1C(=O)c1c(O)c3c(c(O)c1C2=O)C[C@@](O)(C(C)=O)C[C@H]3O[C@H]1C[C@H](N)[C@H](O)[C@H](C)O1 | . | ?
COc1ccc(CCNC(=O)c2cc3cccc4c3n2CC(C)S4)c(OC)c1OC (stereo not drawn) | -29% | ?
Cc1ccc2c(c1)C(c1ccc(F)cc1)N(C(=O)c1ccc(S(=O)(=O)N3CCCCC3)cc1)CC(=O)N2 (stereo not drawn) | 5% | ?
Cc1ccc(O)c(NC(=O)c2ccc(Br)c(S(=O)(=O)N3CCCCC3)c2)c1 | ? | 20µM*
Cc1ccc2nc(-c3ccc(NC(=O)c4ccccc4S(C)(=O)=O)cc3)sc2c1 | ? | 1%
COc1ccc(-n2nc(C(=O)NCCc3ccc(Cl)cc3)c3c4ccccc4n(C)c3c2=O)cc1 | ? | -9%
Cn1nccc1C(=O)NCc1ccc2c(c1)CCN2C(=O)c1ccc(Cl)cc1 | -4% | -19%
Cc1cccc(N2CCN(C(=O)Cn3ncc4c3-c3cc(C)ccc3OC4)CC2C)c1 (stereo not drawn) | ? | ?
Cc1cccc(C(=O)OCc2cc(=O)n3nc(C4CCCCC4)sc3n2)c1 | -43% | -4%
Cc1cccc(-c2noc(C3CC(=O)N(c4ccc5c(c4)OCCO5)C3)n2)c1 (stereo not drawn) | -21% | 5%
CCCCN(C)S(=O)(=O)c1ccc(C(=O)Nc2ccc(-c3nc4ccc(C)cc4s3)cc2)cc1 | -12% | 58%[activator]
CCn1nc(-c2ccccc2)c(-c2ccccc2)c(C(=O)Nc2ccc(NC(C)=O)cc2)c1=O | -7% | -5%

No enrichment for hits (roughly 2.4% active in at least one column).
